# FEN1 inhibitor = qHTS Assay for the Inhibitors of Human Flap endonuclease 1 (FEN1); P39748; Recombinant FEN1 flap cleavage, fluorescence, 15 min; Potency, µM (doses to about 114 µM), inactives show top-dose activity change, negative = inhibition, most hits filed as inhibitors; 390,000 tested, 0.35% active; AID 588795, 2011; note: nearly all actives have a fitted effect of over 65% in size
# Target sequence (P39748 whole entry, looked up): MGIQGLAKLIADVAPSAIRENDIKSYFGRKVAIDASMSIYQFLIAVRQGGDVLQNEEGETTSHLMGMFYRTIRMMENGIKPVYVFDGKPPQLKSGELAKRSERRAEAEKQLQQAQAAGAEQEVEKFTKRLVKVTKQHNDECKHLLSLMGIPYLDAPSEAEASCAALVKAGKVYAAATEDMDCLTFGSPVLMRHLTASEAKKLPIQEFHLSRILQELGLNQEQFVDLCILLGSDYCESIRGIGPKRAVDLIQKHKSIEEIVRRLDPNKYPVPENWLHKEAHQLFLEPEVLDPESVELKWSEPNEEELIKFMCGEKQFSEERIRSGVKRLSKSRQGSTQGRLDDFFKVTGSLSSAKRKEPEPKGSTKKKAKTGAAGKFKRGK
#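 Recombinant FEN1 (10 nM) was preincubated with pin-transferred compounds for 15 min at room temperature, then flap DNA substrate (50 nM final) was added. Plates were read at 0 and 15 min, and normalized concentration–response data were fitted to a four-parameter Hill equation.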
# TDP1 inh = qHTS Assay for Inhibitors of Tyrosyl-DNA Phosphodiesterase (TDP1); Tyrosyl-DNA phosphodiesterase 1 (Homo sapiens), Q9NUW8; recombinant TDP1, AlphaScreen DNA substrate cleavage; Potency, µM (top dose mostly 130 µM), inactives show at the top dose activity change, negative = inhibition, actives largely listed as inhibitors; 350,000 tested, 0.28% active; AID 485290, 2010; note: nearly all actives have a fitted effect of over 40% in size
# Target sequence (Q9NUW8 whole entry, looked up): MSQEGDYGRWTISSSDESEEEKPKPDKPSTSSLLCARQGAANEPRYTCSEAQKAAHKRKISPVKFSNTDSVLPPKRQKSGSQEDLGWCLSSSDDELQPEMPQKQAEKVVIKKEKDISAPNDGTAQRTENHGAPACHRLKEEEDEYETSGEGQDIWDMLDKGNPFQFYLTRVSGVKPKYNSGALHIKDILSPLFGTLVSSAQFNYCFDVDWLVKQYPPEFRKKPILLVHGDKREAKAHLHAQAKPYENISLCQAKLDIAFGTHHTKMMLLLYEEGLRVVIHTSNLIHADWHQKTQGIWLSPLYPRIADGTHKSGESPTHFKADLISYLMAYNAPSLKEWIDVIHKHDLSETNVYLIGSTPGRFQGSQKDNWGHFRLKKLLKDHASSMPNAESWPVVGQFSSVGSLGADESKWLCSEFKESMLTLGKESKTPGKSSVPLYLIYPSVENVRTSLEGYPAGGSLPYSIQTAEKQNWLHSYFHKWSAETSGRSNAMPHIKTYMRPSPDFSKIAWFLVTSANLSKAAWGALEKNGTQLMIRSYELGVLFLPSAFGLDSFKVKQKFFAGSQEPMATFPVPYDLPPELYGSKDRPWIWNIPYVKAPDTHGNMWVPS
#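 Steps: enzyme plus compound, 15 min RT; add biotin/phosphotyrosine-FITC oligonucleotide (15 nM final), react 5 min; add donor/acceptor beads (10 ug/ml final), 10 min; read AlphaScreen. Tdp1 at 1 nM final.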
# An asterisk follows results filed as active; ? = inconclusive; · = no result given; & = joins results of further samples; [ ] = another dose, or the depositor's remark. Calls come from the whole dose curve; as a rule, active = well fitted inhibition curve with a large enough effect; inconclusive = small, poorly fitted or top-dose-only effect; inactive = no such curve, though single readings can be large or run the other way. % is set by controls: 0 for no effect and ±100 for the full control effect; potency is the fitted concentration of half-maximal effect.
mol,FEN1 inhibitor,TDP1 inh
COc1ccc(C(=O)Oc2ccc3oc(=O)sc3c2)cc1,-4.8%,4.0%
CC(C)Oc1ccc(Cc2c(O)nc(NCCCN(C)C)[nH]c2=O)cc1,5.7%,1.3%[56.1 µM]
COc1ccc(NC(=O)CN(C)C(=O)CN2C(=O)NC3(CCCC3)C2=O)cc1,3.6%,-0.5%
O=C(CSc1nnc(NC(=O)c2ccccc2F)s1)Nc1ccccc1F,4.1%,2.7%
COc1ccc(C(=O)COC(=O)CCc2ccccc2)cc1,-15.6%,·
COc1ccc(N2CCN(C(=O)C3Cc4ccccc4CN3C(=O)c3ccccc3)CC2)cc1 (centres undefined),-0.9%,7.5%
O=c1c2c([nH]c3ccccc13)CCCCC2,-2.1%,0.6%
O=C(CCN1C(=O)c2ccccc2S1(=O)=O)Nc1ccc(F)c([N+](=O)[O-])c1,10.3%,-13.8%[0.505 µM]
COc1ccc(-c2nc3ccccc3c(=O)o2)cc1OC,0.8%,-11.9%
Cc1ccc(S(=O)(=O)NCc2ccccc2)cc1C(=O)NC(C)c1ccc(S(N)(=O)=O)cc1 (centres undefined),-14.2%,3.4%
COc1ccc(/C=N/NC(=O)C(C)n2cnc3ccccc3c2=O)cc1 (centres undefined),-2.2%,-2.6%
Cc1ccc(NCc2ccccc2F)cc1,-6.0%,7.9%
O=C(NCCCn1ccnc1)Nc1cccc2ccccc12,-4.7%,2.4%
COc1ccc(-c2cc(C(=O)OC3CCOC3=O)c3ccccc3n2)cc1OC (centres undefined),-16.2%,-1.0%
O=C(NCc1n[nH]c(=S)n1-c1ccccc1)c1ccc(S(=O)(=O)N2CCCCC2)cc1,-7.3%,4.6%
COc1cc(C(=O)N[C@@H](C)C(=O)NCc2ccco2)cc(OC)c1OC,-0.6%,-3.6%
COc1cc2c(cc1NCc1ccccn1)oc1ccccc12,-19.1%,9.1%[56.1 µM]
O=C(NC(=S)NNC(=O)c1cccs1)c1ccccc1,-8.6%,5.0%
O=C(O)c1nn2c(c1Br)NC(c1ccccc1)CC2C(F)(F)F (centres undefined),10.0%,2.9%
C/C(N)=C(/C#N)C(=O)COC(=O)CNS(=O)(=O)c1ccc(C)cc1,2.5%,-1.2%
COc1ccc(OCC(=O)NCc2ccc(Cl)cc2)cc1,2.5%,·
COC(=O)c1ccc(NS(=O)(=O)c2ccc(SC)cc2)cc1,-3.1%,5.7%
Cc1cccc(-n2c(O)c(/C=N/NC(=O)c3ccccc3Cl)c3ccccc3c2=O)n1,-2.4%,4.4%
Oc1ccc(Cc2ccc(Cl)cc2)c(O)c1,4.5%,2.7%
O=C(OCCCCN1C(=O)c2ccccc2C1=O)c1ccc(S(=O)(=O)N2CCCC2)cc1,-13.3%,7.0%
Cc1ccc(/C=C(/C#N)C(=O)NC(=O)Oc2ccccc2)cc1,-2.4%,7.0%
Cc1cc(C)c(NC(=O)CSc2nnc(CNC(=O)c3c(F)cccc3Cl)o2)c(C)c1,-9.4%,1.9%
Cn1c(CN2CCOCC2)nnc1SCc1ccc(C#N)cc1,-5.9%,-2.5%
Cc1cnc(C(=O)OCC(=O)Nc2oc(-c3ccccc3)c(-c3ccccc3)c2C#N)cn1,-5.1%,8.2%
CC(C)c1ccc(NC(=O)c2cc(S(=O)(=O)NCC3COc4ccccc4O3)ccc2F)cc1 (centres undefined),-15.6%,2.6%
O=C(NCCc1ccncc1)C12CC3CC(CC(C3)C1)C2,1.3%,3.3%
Cc1ccc(NC(=O)CNC(=O)c2cccc(Cl)c2)nc1,1.0%,·
CC(C)(C)c1ccc(C(=O)Nc2ccc(CN3CCS(=O)(=O)CC3)cc2)cc1,4.7%,-5.7%
COc1ccc2c(c1)-c1nc(/N=C/c3ccccc3O)sc1CC2,10.3%,7.0%
CS(=O)(=O)N1CCc2cc(C(=O)N3CCN(c4ccccc4F)CC3)ccc21,-4.7%&-9.9%,5.4%&2.3%
CC(C)CC(=O)Nc1nnc(S(=O)(=O)N(C)Cc2ccco2)s1,25.3%,5.6%
O=C(Nc1ccc(-n2ccnc2P(=O)(O)c2ccccc2)cc1)c1ccccc1Cl,0.3%,-5.9%
CC(=O)N1c2ccc(S(=O)(=O)N3CCCC3C(=O)Nc3ccc(C)cc3)cc2CC1C (centres undefined),18.8%,·
O=C(N1CCN(c2ccccc2)CC1)C12CC3CC(CC(C3)C1)C2,3.0%,3.8%
CCCCCn1c(=O)[nH]c2c(c1=O)CCC2,3.4%,5.8%

# Five entries from above, arranged by their value in TDP1 inh, rising.
molecule | TDP1 inh
O=C(Nc1ccc(-n2ccnc2P(=O)(O)c2ccccc2)cc1)c1ccccc1Cl | -5.9%
Cn1c(CN2CCOCC2)nnc1SCc1ccc(C#N)cc1 | -2.5%
Cc1cccc(-n2c(O)c(/C=N/NC(=O)c3ccccc3Cl)c3ccccc3c2=O)n1 | 4.4%
CCCCCn1c(=O)[nH]c2c(c1=O)CCC2 | 5.8%
Cc1ccc(/C=C(/C#N)C(=O)NC(=O)Oc2ccccc2)cc1 | 7.0%

# (listing goes on)
mol,FEN1 inhibitor,TDP1 inh
COCCNC(=O)C(c1cccc(OC)c1)N(Cc1cccs1)C(=O)Cn1nnc2ccccc21 (centres undefined),-2.6%,3.3%
CCOCCSc1nnc2nc(C)cc(C)n12,-2.2%,7.0%
CNC(=O)c1ccc(Nc2nnc(C)c3ccccc23)cc1,-4.3%,2.2%
O=S(=O)(NCC(c1ccco1)N1CCc2ccccc21)c1ccccc1 (centres undefined),10.8%,-10.8%[0.505 µM]
CC[C@@]12C(=O)N(c3cccc(C)c3)C(=O)N1[C@H](c1ccc(OC)cc1)[C@@H]1C(=O)N(C(C)(C)C)C(=O)[C@@H]12,-8.2%,·
COc1ccc(CNC(=O)CNS(=O)(=O)c2cccc(C#N)c2)cc1OC,-1.3%,·
C=C1C(=O)C23C(O)C1CCC2[C@]12COC3(O)C(O)C1C(C)(C)CC[C@H]2O (some centres undefined),·,13.6%[56.1 µM]
Cc1ccccc1N(CC(=O)N1CCc2ccccc2C1)S(C)(=O)=O,-2.2%,2.1%
COc1ccc(C(=O)OCCN2CCN(C3=NS(=O)(=O)c4ccccc43)CC2)cc1OC,2.7%,·
CCCCn1c(O)c(C(CC)=Nc2ccc3c(c2)CCC3)c(=O)[nH]c1=O,9.7%,-2.1%
O=C(COC(=O)c1cnccn1)NCCc1ccccc1,-7.3%,-2.8%
Cc1ccc(CN(Cc2ccccc2)C(=S)NCC(=O)NCc2cccnc2)o1,19.6%,5.9%
O=C(CCC(=O)NC12CC3CC(CC(C3)C1)C2)NC1CCCCC1,0.6%,1.5%
CCC(=O)Nc1nc(NCc2ccccc2OC)n(-c2ccccc2)n1,-18.3%,·
O=C(CNC(=O)c1ccccc1)OCC(=O)c1ccccc1Cl,-3.7%,0.1%
COc1cc(NC(=O)c2ccc(S(=O)(=O)N(C)C)cc2)cc(OC)c1OC,1.8%,6.3%
COC(=O)C(Cc1ccccc1)NC(=O)COc1ccc(C(C)(C)C)cc1 (centres undefined),?,3.5%
CCCCNC(=O)O[C@H]1C[C@@H]2CCN3C(=O)CCC[C@H]([C@H]1Cc1ccccc1)[C@H]23,4.8%&0.1%,·
COc1ccc(C(=O)/C=C(/C)N(C)C)cc1,1.4%,1.1%
CNC(=O)c1ccccc1-c1cn(C)c2ccccc2c1=O,2.0%,5.9%
COc1cccc(-c2noc(-c3ccc4c(c3)OCO4)n2)c1,6.0%,-5.4%
O=C(CCNS(=O)(=O)c1ccc(Br)cc1)NCCc1ccc(Cl)cc1,5.2%,1.8%
CCN(CC)C(=O)CSc1nnc(-c2cccc(OC)c2)o1,4.9%,1.0%
Cc1ccc(C(c2sc3ncnn3c2O)N2CCCCC2)cc1 (centres undefined),18.2%,0.0%
CC(=O)c1cccc(S(=O)(=O)NCC(C)(C)N2CCOCC2)c1,-11.1%,·
Cc1occc1C(=O)Nc1sccc1C(N)=O,-22.1%,-0.1%
Cc1ccc(C)c(CS(=O)(=O)c2cn(CC(=O)N3CCC(C)CC3)c3ccccc23)c1,-13.3%,0.0%
Cc1ccc2nc(N3CCN(C(=O)CCCC(=O)O)CC3)nc(-c3ccccc3)c2c1,11.6%,·
COC(=O)CC1(c2ccc(OC)cc2)C(=O)c2ccccc2C1=O,9.8%,·
Cc1c(C(=O)OCC(=O)NCc2ccccc2)oc2ccccc12,-0.5%,-0.2%
CCCN1C(=O)c2ccccc2NC1c1ccc(OC)cc1OC (centres undefined),3.6%,2.0%
CCc1ccc(S(=O)(=O)NCc2cn3c(C)csc3n2)s1,-3.0%,7.6%
CC(C)P(=O)(c1cccc(C(=O)O)c1)C(C)C,2.4%,0.0%
O=C(NNC(=S)NCc1ccc(Cl)cc1)c1ccc2c(c1)OCO2,7.3%,1.2%
COCC(C)NC(=O)c1ccccc1[N+](=O)[O-] (centres undefined),-1.6%,5.1%
O=C(/C=C/c1cccc(C(F)(F)F)c1)Nc1cccc(C(F)(F)F)c1,-9.9%,1.0%
CCCOC(=O)c1ccc(NC(=O)c2cc(=O)[nH]c3ccccc23)cc1,16.8%,0.0%
CCOc1ccc(NC(=O)c2ccccc2OC)cc1,-5.6%,0.0%
O=C(N/N=C/c1ccccn1)C(=O)N1CCCCCC1,-1.4%,·
O=C(NCc1ccccc1)OCCN1CCN(Cc2ccccc2)CCC1=O,21.3%,7.1%&2.6%

# Full records, looked up by structure. Order of screens: FEN1 inhibitor | TDP1 inh
# Record of Cc1ccc2nc(N3CCN(C(=O)CCCC(=O)O)CC3)nc(-c3ccccc3)c2c1 → 11.6% | ·
# Record of COC(=O)CC1(c2ccc(OC)cc2)C(=O)c2ccccc2C1=O → 9.8% | ·

# (more compounds)
mol,FEN1 inhibitor,TDP1 inh
CC(=O)Nc1ccc(CN2CCN(C3CCCC3)C(CCO)C2)cc1 (centres undefined),13.1%,0.0%
COc1ccc(OC)c(NC(=O)CSc2nc(=O)n(CCN3CCOCC3)c3c2CCC3)c1,3.5%,·
CC1CCCN(S(=O)(=O)c2cnc[nH]2)C1 (centres undefined),13.2%,2.1%
COc1ccc(-n2c(CNC(=O)COc3ccc(Cl)cc3)n[nH]c2=S)cc1,-7.7%,3.6%
CC1CN(C(=O)c2ccc(S(=O)(=O)Nc3cccc(C(F)(F)F)c3)cc2)CC(C)O1 (centres undefined),-0.1%,1.4%
COc1cc(Cn2c(=O)c3c(OC)c(C)cnc3n(C)c2=O)cc(OC)c1,-15.7%,-0.2%
COC(=O)c1ccc(-c2nc(O)c3cnccn23)cc1,-1.0%,4.9%
O=C(N/N=C/c1ccc(OC(=O)c2ccccc2Cl)cc1)c1ccccn1,4.3%,0.4%[56.1 µM]
COc1ccc(C)cc1NC(=O)C1CC(=O)N(CCc2ccccc2)C1 (centres undefined),14.3%,5.0%
Clc1cccc2sc(N3CCCCC3)nc12,-5.7%,2.3%
CN(C)C=Nc1ncc2c([nH]c3ccccc32)c1C#N,?,5.8%
COc1ccc(N(CC(=O)NCc2ccc3c(c2)OCO3)C(=O)c2csnn2)cc1,1.5%,·
CCN(c1ccccc1)S(=O)(=O)c1ccc(OC)c(NS(=O)(=O)c2cccs2)c1,-17.0%,-13.3%
Cc1ccc(C(=O)N2CCC(Cc3ccccc3)CC2)cc1S(=O)(=O)N1CCOCC1,-8.2%,-0.3%
Cc1cc(/C=C2/SC(=O)N(CC(=O)N3CCCC3)C2=O)c(C)n1C,-5.7%,·
O=C(NCc1nnc(SCC(=O)N2CCCCC2)o1)c1ccc(F)cc1,11.7%,3.5%
Cc1cccc(NC(=O)c2ccccc2NC(=O)C(C)(C)C)n1,2.1%,5.1%
CCN(c1ccccc1)S(=O)(=O)c1ccc(C(=O)Oc2ccc(C(C)=O)cc2)cc1,8.7%,0.0%
CCN(CC)S(=O)(=O)c1ccc(C)c(NC(=O)CNCCN(C(C)C)C(C)C)c1,49.5%[activator],-3.6%
O=C(C1=NN(c2ccccc2)C2C(=O)N(c3ccccc3Cl)C(=O)C12)c1ccccc1 (centres undefined),6.2%,2.6%
COCCCNC(=O)CN1CCN(Cc2ccccc2Cl)C1=O,-2.9%,4.9%
C/C(=C1\SC(N2CCOCC2)=NC1=O)c1ccc(C)cc1,2.4%,-5.9%
O=C(Cc1cnc2ncnn2c1)N1CCc2c([nH]c3ccccc23)C1c1ccccc1F (centres undefined),-3.6%,4.9%
COc1ccc(Cc2nnc(SCC(=O)N(C)c3ccccc3)o2)cc1,-8.8%,-0.3%
Cc1ccc(S(=O)(=O)N2CCCC(C(=O)NCc3ccccc3F)C2)cc1 (centres undefined),-3.0%,·
COCc1cc(=O)[nH]c(-c2csc(C)n2)n1,-0.4%,2.6%
CC1CCN(S(=O)(=O)c2cccc(C(=O)N(Cc3ccccc3)c3ccccn3)c2)CC1,-0.2%,-5.4%
O=C(c1ccccc1Br)N1CCc2c([nH]c3ccccc23)C1,8.1%,·
OCc1cccnc1,·,4.9%&-9.2%

# Screening results deposited in PubChem BioAssay by National Center for Advancing Translational Sciences (NCATS).

# Not all compounds are listed, and most or all hits are left out here.
